NPYLR7 ag = mosquito NPYLR7 agonism | HEK293T NPYLR7/Galpha15, GCaMP6s calcium fluorescence | activation, % at 10 µM | 270,000 compounds, 0.15% hits | AID 1259423; in the data active means activation above about 40%;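 further: 0% = vehicle and 100% = reference agonist at the receptor; some compounds past the cut are filed as inactive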
NPYLR7 ag max-min = further read-out of NPYLR7 ag, marked with its call; activation, %; measured here: Max-Min RFU normalised activation; some inactives read as strong as hits;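 span of the calcium signal over five minutes; 0% = vehicle and 100% = native peptide agonist; compound fluorescence can raise it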
* marks the source's active call; other numbers are inactive results; & = joins results of further samples. A portion of the library. The share of hits here may be higher or lower than overall.

SMILES	NPYLR7 ag	NPYLR7 ag max-min
CN(C)CCCn1ccc2nc3ncnn3c(-c3ccccc3)c2c1=O	4	4
CS(=O)c1ccc(C(=O)Nc2ccc(C(F)(F)F)cc2)cc1 (stereo unspecified)	-5	-5
COc1cccc(C2=NNC(=NC3CCCCC3)SC2)c1	-5	-5
CCCNc1cc(C)nc2c(-c3ccccc3Cl)c(C)nn12	-6	-8
COc1cccc(-c2nc(CSc3n[nH]c(=O)c4cc(-c5cccs5)nn34)c(C)o2)c1OC	6	9
Cc1cccnc1N1C(=O)C2C3C=CC(C3)C2C1=O (stereo unspecified)	-1	-3
COc1ccccc1NC(=O)c1ccc(-n2nc(-c3cccc(C)c3)cc2N)cc1	-8	-11
O=C(NC1CC2CCC(C1)N2Cc1ccoc1)c1c(Cl)cc(Cl)cc1Cl (stereo unspecified)	3	4
COc1ccc(-n2ncc(Oc3ccc(Cl)c(C)c3)c(Nc3cccc(C(=O)NCc4cccnc4)c3)c2=O)cc1	-4	-1
O=Cc1cccc(-c2nccnc2NCC(O)COc2ccccc2)c1 (stereo unspecified)	-7	-9
CSCc1ccc(C(=O)N2CCC(n3nccc3NC(=O)C(C)(C)C)CC2)o1	11&3	2&-1
COCCNc1ccc2ncc(-c3ccc(N(C)C)cc3)n2n1	-3	-6
CC1CCC(C(C)C)C(=NNC(N)=O)C1 (stereo unspecified)	1	-3
COc1ccc(N2CCN(c3cc(C(C)(C)C)nc(SCc4cccc(C(=O)NCc5ccc6c(c5)OCO6)c4)n3)CC2)cc1	-5	-4
CC1(C)COC2(OC1)C(=O)Nc1ccccc12	3	6
Cc1cc(N2CCCC2)nc(SCc2ccc(C(=O)N(C)Cc3ccccc3)cc2)n1	-3	8
CCC1(c2ccccc2)NC(=O)N(NC(=O)CCl)C1=O (stereo unspecified)	23	9
CCOC(=O)C(C)n1cnc2c(nnn2-c2cccc(Cl)c2)c1=O (stereo unspecified)	7	8
CCOC(=O)c1c(NC(=O)c2cc(OC)c(OC)c(OC)c2)sc(C(N)=O)c1C	-3	-9
O=C(Cc1ccc(O)c(Cl)c1)N1C[C@H]2C[C@H](O)[C@H](O)C[C@H]2C1	13	8
Cc1ccc(CN(Cc2ccc3c(c2)OCO3)CC(O)COCc2ccco2)o1 (stereo unspecified)	23	31
N#Cc1cccnc1Oc1ccccc1NC(=O)NCC1Cc2ccccc2O1 (stereo unspecified)	6	6
N#Cc1c(N)nc2sc(C(=O)c3ccc(Cl)cc3)c(N)c2c1-c1ccco1	4	6
CN(C)c1ccc(N)cc1CN(Cc1cccc(F)c1)C(=O)c1cccs1	-5	1
CCOC(=O)CNC(=O)CSc1ccc2nnc(-c3ccccc3)n2n1	0	33

Going on with the list.
SMILES	NPYLR7 ag	NPYLR7 ag max-min
CCCOC1CCCN(C(=O)c2ccc(Br)cc2)C1 (stereo unspecified)	-3	1
O=C(CN1C(=O)SC(=Cc2cccs2)C1=O)N1CCCC1	-4	-6
CNC(=O)CC(C)N(C)Cc1nc[nH]c1C (stereo unspecified)	-3	-3
CN(C)CC1(O)CCCN(Cc2cc(-c3ccccn3)no2)CC1 (stereo unspecified)	20	9
Cc1ccc(CNC(=O)NCCCCN2CCC(C)CC2)cc1	-7	-9
O=C(c1ccccc1)N1CCC(NCc2nncn2C2CCCCC2)CC1	3	3
CCc1cccc2c(C(CC(=O)N3CCN(c4ccc([N+](=O)[O-])cc4)CC3)c3cccc4c3OCO4)c[nH]c12 (stereo unspecified)	12	28
CN(C)Cc1ccccc1CCc1ccccc1	-5	-6
COC(=O)[C@@H]1CCCN1Cc1cn[nH]c1-c1ccc(OC)c(F)c1	2	-5
Cc1nccn1Cc1cccc(CNCC(C)(C)S(C)(=O)=O)c1	3	2
CN(Cc1ccccc1)c1cc(Oc2ccc(F)cc2Cl)ncn1	27	30
O=S(=O)(c1cc(Br)c(Br)s1)N1CCN(CCCOC(c2ccc(Cl)cc2)c2ccc(Cl)cc2)CC1	0	-7
O=C(Cn1nc(-c2ccco2)c2sc(N3CCCCC3)nc2c1=O)c1ccc2c(c1)OCCO2	-3	-6
Cc1nonc1CN(C)c1nc(-c2cccnc2)nc2c1CCNC2	0	-5
O=C(Nc1ccc(Cl)cc1Cl)c1cc2nc(-c3ccc(Br)cc3)cc(C(F)(F)F)n2n1	-5	-6
COc1ccc2c(c1)OC(C)CN(Cc1cn[nH]c1-c1ccc(F)cc1)C2 (stereo unspecified)	10	6
CN1NC(c2cccnc2)C2C(=O)N(Cc3ccccc3)C(=O)C21 (stereo unspecified)	5	4
Cc1nnc(SCCCNC(=O)c2cc(C(C)C)[nH]n2)s1	3	-4
CCCNC(=O)c1ccc(Nc2c(Oc3ccc(C)cc3C)cnn(C)c2=O)cc1	1	11
CC(C)(Cc1c[nH]c2ccccc12)NC(=O)c1ccc(Nc2cccc(C(F)(F)F)c2)nc1	-5	-11
Cc1ccc(NC(=O)COC(=O)c2cc3c(s2)-c2ccccc2OC3)c(C)c1	3	9
CC(=O)N1c2ccccc2C(CSc2nnc(C)s2)=CC1(C)C	0	-6
CCOC(=O)CNc1c(-c2ccc(O)cc2)nc2ccc(Cl)cn12	34	39
O=C(Nc1cc(-c2ccccc2)nn1-c1ccccc1)c1cc(Cl)ccc1F	3	-8
COc1cn(CC(=O)Nc2cccc(C)c2)c(CSc2nccc(C)n2)cc1=O	-1	1

Arranged by SMILES length (ascending): part of the list above.
SMILES	NPYLR7 ag	NPYLR7 ag max-min
CN(C)Cc1ccccc1CCc1ccccc1	-5	-6
CC1CCC(C(C)C)C(=NNC(N)=O)C1 (stereo unspecified)	1	-3
CNC(=O)CC(C)N(C)Cc1nc[nH]c1C (stereo unspecified)	-3	-3
CC1(C)COC2(OC1)C(=O)Nc1ccccc12	3	6
Cc1cccnc1N1C(=O)C2C3C=CC(C3)C2C1=O (stereo unspecified)	-1	-3
CCCNc1cc(C)nc2c(-c3ccccc3Cl)c(C)nn12	-6	-8
O=C(CN1C(=O)SC(=Cc2cccs2)C1=O)N1CCCC1	-4	-6
Cc1nccn1Cc1cccc(CNCC(C)(C)S(C)(=O)=O)c1	3	2
O=C(c1ccccc1)N1CCC(NCc2nncn2C2CCCCC2)CC1	3	3
CCOC(=O)CNc1c(-c2ccc(O)cc2)nc2ccc(Cl)cn12	34	39
CCOC(=O)C(C)n1cnc2c(nnn2-c2cccc(Cl)c2)c1=O (stereo unspecified)	7	8
Cc1ccc(CN(Cc2ccc3c(c2)OCO3)CC(O)COCc2ccco2)o1 (stereo unspecified)	23	31
COC(=O)[C@@H]1CCCN1Cc1cn[nH]c1-c1ccc(OC)c(F)c1	2	-5
COc1ccc2c(c1)OC(C)CN(Cc1cn[nH]c1-c1ccc(F)cc1)C2 (stereo unspecified)	10	6
CSCc1ccc(C(=O)N2CCC(n3nccc3NC(=O)C(C)(C)C)CC2)o1	11&3	2&-1
COc1ccccc1NC(=O)c1ccc(-n2nc(-c3cccc(C)c3)cc2N)cc1	-8	-11
CCOC(=O)c1c(NC(=O)c2cc(OC)c(OC)c(OC)c2)sc(C(N)=O)c1C	-3	-9
O=C(Cn1nc(-c2ccco2)c2sc(N3CCCCC3)nc2c1=O)c1ccc2c(c1)OCCO2	-3	-6
COc1cccc(-c2nc(CSc3n[nH]c(=O)c4cc(-c5cccs5)nn34)c(C)o2)c1OC	6	9
COc1ccc(-n2ncc(Oc3ccc(Cl)c(C)c3)c(Nc3cccc(C(=O)NCc4cccnc4)c3)c2=O)cc1	-4	-1

(more compounds)
SMILES	NPYLR7 ag	NPYLR7 ag max-min
Cc1nc(C)c(CN2CCc3ccc(S(N)(=O)=O)cc32)s1	-1	-3
O=C(c1ccc(Cl)c(F)c1)N1CCCC(Nc2ccccc2)C1 (stereo unspecified)	0	-8
COC(=O)C1CC2(CCN(C(=O)C(C)ON=C(C)C)CC2)c2ccccc21 (stereo unspecified)	0	13
O=C(c1cc(C2CC2)[nH]n1)N1CCCC(Cc2nc(C3CCCCCC3)no2)C1 (stereo unspecified)	-3	247
O=C1NC2(CCN(C(=O)c3ccc(C(F)(F)F)cc3)CC2)Nc2cc(F)c(F)cc21	-3	-3
C=CCNC(=O)Cn1nnc(-c2ccccc2)n1	12	12
CCOC(=O)C1CCCN(C(=O)c2cnn(-c3ccccc3Cl)c2C(F)(F)F)C1 (stereo unspecified)	0	9
Cn1nc(-c2ccccc2)c2c1NC(=O)CC2c1cc(C(C)(C)C)n[nH]1 (stereo unspecified)	9	1
COc1cc(-c2nc3cc(C)ccn3c2NCc2ccccc2)ccc1O	4&-10	8&-15
CC(Cn1cncn1)NC(=O)c1cc(COc2ccc3c(c2)CCCC3)on1 (stereo unspecified)	-2	-5
O=Cc1cc(Br)ccc1COc1ccccc1	9	6
O=C(C(c1ccccc1)n1cccc1)N1CCC(Cc2ccccn2)CC1 (stereo unspecified)	1	3
CC1CN(C(=O)c2cn[nH]c2-c2ccc(Cl)cc2)CCO1 (stereo unspecified)	2	2
O=C1OCCN1C1CCN(Cc2cc3n(n2)CCNC3)CC1	4	2
CCOc1ccc(S(=O)(=O)n2nc(C)c(S(=O)(=O)N3CCCCC3)c2C)cc1	6	3
O=S(=O)(Nc1cccc2ncccc12)c1ccc(Cl)s1	10	16
CC1(C(=O)NCc2cccc(C(F)(F)F)c2)CCN1Cc1cc2ccccc2o1 (stereo unspecified)	2	1
COc1ccc(NC(=O)Nc2ccc(Nc3ccc(-n4nc(C)cc4C)nn3)cc2)cc1	-2	-11
CN(C)CC1(O)CCCN(CCOc2ccc(F)cc2)C1 (stereo unspecified)	-3	-9
COCCn1c(=NC(=O)c2ccccc2S(C)(=O)=O)sc2cc(F)cc(F)c21	1	0
Cc1cc(CNC(=O)C(O)CC(C)C)c2[nH]c(C)c(C)c2c1 (stereo unspecified)	7	3
O=c1c2c(nc(SCc3ccc(Br)cc3)n1-c1ccccc1)CCS2	-2	-2
COc1cc(NC(=O)Cn2nc(SC)c(-c3nc(-c4ccccc4)no3)c2N)cc(OC)c1	-4	-13
CCN1CCCC(c2c(-c3ccccc3)ncn2Cc2cccnc2)C1 (stereo unspecified)	-4	-10
Cc1ccc(NC(=O)N2CCSC23C(=O)N(Cc2ccc(F)cc2)c2ccc(F)cc23)cc1C (stereo unspecified)	-6	-2

Next compounds
SMILES	NPYLR7 ag	NPYLR7 ag max-min
Cc1ccc(NCCNS(=O)(=O)c2cc(C)c(C)cc2C)nn1	-18	-22
CCCCCC(C)NS(=O)(=O)c1cnn(C)c1 (stereo unspecified)	0	-3
O=C(C1CCC1)N1CCCC(N2CCN(c3ccccc3F)CC2)C1 (stereo unspecified)	1	9
Cc1cc(C(=O)NNC(=O)CNC(=O)c2ccco2)c(C)o1	19	8
Cc1ccc(S(=O)(=O)Nc2cc3c4c(oc3c3ccccc23)CCCC4=O)cc1[N+](=O)[O-]	1	-3
COCCCNC(=O)C(C1CCCC1)N1CCN(C(=O)c2ccc(Cl)cc2Cl)CC1 (stereo unspecified)	-4	-4
C=CCn1c(=S)[nH]c2c(c1=O)C1(CCCC1)Cc1ccccc1-2	0	-2
Cc1cccc(N2CCN(CCNC(=O)c3cc(Br)ccc3F)CC2)c1	14	11
N#CC(C#N)=Cc1ccc(-c2nc3ccccc3s2)o1	-4	-8
O=C(CNC(=O)/C=C/c1ccccc1)N=Nc1c(O)[nH]c2ccc([N+](=O)[O-])cc12	-1	-4
C=CCn1c(=O)c2c(nc3n(-c4ccc(OCC)cc4)c(C)c(C)n23)n(C)c1=O	-1	10
CCCCc1nc(N2CCN(S(C)(=O)=O)CC2)c2c(-c3ccccc3)noc2n1	12	10
Cc1cccc(OCC(=O)Nc2ccc(N3CCOCC3)nc2)c1	6	5
COc1cc(C(C)NCc2ccc(N3CCOCC3)cc2)ccc1OC(C)C (stereo unspecified)	3	3
c1ccc(COc2cccc3[nH]ncc23)cc1	16	11
CCOC(=O)c1ccccc1NC(=O)CCCn1nc(-c2ccc(Cl)cc2)ccc1=O	9	9
CCOc1ccccc1CN1CCN(Cc2ccc(SC)cc2)CC1CCO (stereo unspecified)	-3&8	-3&8
C#CCOc1c(Cl)cc(C=Nn2c(=O)[nH]c3cc(OC)c(OC)cc3c2=O)cc1OC	3	-2
CC(C)OCCCn1c(=N)c(C#N)cc2c(=O)n3ccccc3nc21	1	9
CN(C)CC(C)(C)CNC(=O)c1ccc(CSc2ccc3ccccc3n2)cc1	5	-1
Clc1ccccc1CSc1nn2cnnc2s1	7	0
Cc1ccc(CN2CCC(C(=O)Nc3ccc(Oc4cccnc4)cc3)CC2)o1	0&3	-2&-2
O=C(Nc1ccnn1C1CCN(Cc2cc3ccccc3o2)CC1)c1ccccc1	11	4
Cc1nc(-c2cccc(C(F)(F)F)c2)nc(N2CCN(C(=O)Nc3c(Cl)cccc3Cl)CC2)c1C	-4	1
Cc1ccc(S(=O)(=O)/C(C#N)=C/N2CCN(C)CC2)cc1C	-4	-4

(more compounds)
SMILES	NPYLR7 ag	NPYLR7 ag max-min
O=c1c(Br)cccc(Br)c1O	6	0
CCOc1ccc(Cl)cc1CNc1nn[nH]n1	0	5
CSC1=N/C(=C\c2ccc(C(=O)O)cc2)C(=O)S1	4	1
CCn1c(CN2CCCCCC2=O)nnc1SC(C)c1nc2ccccc2c(=O)[nH]1 (stereo unspecified)	4	0
CN1C(=O)C2(CCN(C(=O)CCn3ccccc3=O)CC2)c2ccccc21	1	2
CCCCNC(=O)c1ccc(S(=O)(=O)C(F)F)cc1	10	13
CC(C)c1ccc(-c2nccn2CCn2cccn2)cc1	5	1
COc1ccccc1C(=O)Nc1c2c(nn1-c1ccccc1C)CSC2	3	9
CS(=O)(=O)N1CCOC(CC(c2ccccc2)c2ccccc2)C1 (stereo unspecified)	1	-1
